Screening data as filed in PubChem BioAssay.
Anthrax LT inh – inhibitors of anthrax lethal toxin internalization; AID 912; actives 0.67% (n = 70,000); Cells, anthrax lethal toxin internalization, FRET ratio (460/530); Potency, µM (highest dose often 40 µM), for the others: at the highest dose activity change, negative = inhibition, hits mostly inhibitors; active = well fitted falling ratio curve with the 530 nm signal flat; inconclusive = other ratio curves, or a change in one channel alone; inactive = flat curves in the ratio and both channels; the % refers to the ratio; further: on the % scale 0 is the no-effect control and ±100 the full control effect; nearly all actives have a fitted effect of over 50% in size; tested in ME-180 cells; beta-lactamase reporter
SmPrx2 inh – Schistosoma mansoni Prx2 inhibition; S. mansoni Prx2 activity coupled to TGR/GSH (TGR is thioredoxin glutathione reductase), NADPH fluorescence loss, qHTS; some inactives read as strong as hits; Potency, µM; actives 0.07% (n = 65,000); active means full or partial inhibition curve with a strong effect at the top dose; inconclusive means weaker partial or single-point curve; inactive means no accepted curve; further: series up to 57 µM; many of its hits are not listed in these tables
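Activity is read as the drop in NADPH fluorescence (365/450 nm), recorded every 30 sec for 8 min after H2O2 addition. Prx2 is coupled to TGR-driven NADPH oxidation through glutathione, in phosphate buffer pH 7.4.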
Numbers without * were called inactive; ? = inconclusive; · = no result given; [ ] = another dose, or the depositor's remark. Potency means the concentration at half of the fitted maximal effect. Only part of the results is shown. The share of hits here may be higher or lower than overall.

| SMILES | Anthrax LT inh | SmPrx2 inh |
| --- | --- | --- |
| CN(C)C(=O)CN(C)S(=O)(=O)c1ccc(Cl)cc1 | -2% | >57 |
| CCn1c(C)c(C(C)=O)c(N2CCCCC2)nc1=S | -15% | >57 |
| CCN(CCO)C(=O)C12CCC(C)(C(=O)C1)C2(C)C (stereo not given) | 5% | >57 |
| NCC(O)COCCC12CC3CC(CC(C3)C1)C2 (stereo not given) | 14% | >57 |
| CN(C)c1ccc(/C(=N\O)C(F)(F)F)cc1 | -2% | · |
| CCC(=O)N1CCc2cc(S(=O)(=O)NC(C(=O)NCc3ccccc3)C(C)C)ccc21 (stereo not given) | -3% | >57 |
| CC(=O)Nc1nc(C)nc(C)c1C(C)=O | 6% | >57 |
| Cc1ccccc1-c1ccc(=O)n(CC(=O)Nc2ccc(N3CCOCC3)cc2)n1 | -2% | >57 |
| CCCCCN(C(=O)NC(=O)Nn1cnnc1)S(C)(=O)=O | -1% | >57 |
| O=C1CC(c2ccc(S(=O)(=O)NCc3ccccc3)cc2)CN1 (stereo not given) | -8% | >57 |
| CCCCn1nnnc1NCc1cccs1 | 19% | >57 |
| CCOC(=O)Cn1c(CN2CCOCC2)nc2c1c(=O)n(C)c(=O)n2C | ? | >57 |
| CC(C)c1ccc(NC(=O)C2CCCCC2C(=O)O)cc1 (stereo not given) | -14% | >57 |
| CN(C)CCNc1ncnc2ccccc12 | -15% | >57 |
| CC(C)(CO)NCc1ccccc1OCC(=O)Nc1ccccc1 | 3% | >57 |
| CCN(CC)CCN1C(=O)C(=O)/C(=C(/O)c2ccccc2)C1c1ccccc1F (stereo not given) | 8% | · |
| O=C(CN(Cc1cccs1)C(=O)CNS(=O)(=O)c1ccc(F)cc1)NCc1ccco1 | -3% | >57 |
| CCOC(=O)N1CCN(C(=O)c2ccc3nc(N4CCCCC4)sc3c2)CC1 | 5% | >57 |
| Nc1nc(CN2CCN(c3ccccc3)CC2)nc(N2CCCc3ccccc32)n1 | -25% | >57 |
| COc1cccc(NC(=O)CSc2nnc(-c3cccc(OC(C)C)c3)n2N)c1 | 0% | >57 |
| CN1CCN(c2ccccc2NS(=O)(=O)c2ccc3c(c2)CCN3C(=O)C2CCC2)CC1 | ? | >57 |
| Cc1ccc(CNC(=O)CN2C(=O)C3(OCCCO3)c3ccccc32)cc1 | -7% | >57 |
| CCOC(=O)N1CCN(C(=O)CN(C2CCCCC2)S(C)(=O)=O)CC1 | -5% | >57 |
| O=C(c1ccco1)N1CCC2(CCCN(c3cccc(-c4ccccc4)c3)C2)CC1 | ? | >57 |
| CS(=O)(=O)N1CCC2(CCCN(C(=O)Nc3cccc(F)c3)C2)CC1 | 12% | >57 |
| CN(CC(=O)Nc1ccc(F)c(F)c1)S(=O)(=O)c1cccc2nsnc12 | 5% | >57 |
| O=C(NCc1ccco1)c1ccc(N2CCCC2=O)cc1 | 12% | >57 |
| C=CCn1c(SCC(=O)/C(C#N)=C(\C)N)nc2sc(CC)cc2c1=O | 10% | >57 |
| COc1nc(-c2ccccc2)ccc1-c1noc(COc2ccccc2)n1 | -16% | >57 |
| O=C(CCn1nnc(-c2cccs2)n1)NCc1ccccc1Cl | ? | >57 |
| CC(=O)NCC(=O)OCC(=O)c1ccc(C)c(C)c1 | 1% | >57 |
| CCO/C=C1/C(=O)N(CC)c2ccccc21 | -6% | >57 |
| Cc1cccc(CNc2ncnc3[nH]ncc23)c1 | 0%[8 µM] | >57 |
| O=C(NCC1CCCO1)C1CCC(=O)N1Cc1ccccc1Cl (stereo not given) | -17% | >57 |
| COc1cc(CC(NC(C)=O)C(=O)NC2CCN(c3nc(C)cc(C)c3C#N)CC2)cc(OC)c1 (stereo not given) | ? | >57 |
| CC(C)N(c1ccccc1)c1ccc(NC(=O)C2CCCO2)cc1 (stereo not given) | 6% | >57 |
| COc1ccc(OC)c(S(=O)(=O)N2CCC(C(=O)Nc3ccc(C)c(C)c3)CC2)c1 | ? | >57 |
| Cc1ccc(S(=O)(=O)Nc2cc(C(=O)NCCN3CCCC3)ccc2N2CCCCC2)cc1 | -2% | >57 |
| COc1ccccc1N1CSC2=C(C#N)C(c3ccc(SC)cc3)CC(=O)N2C1 (stereo not given) | ? | >57 |
| C=CCNC(=O)c1ccc2c(c1)nnn2C | -10% | >57 |

A different layout for part of the listing above.
Below each compound: Anthrax LT inh	SmPrx2 inh
CC(=O)NCC(=O)OCC(=O)c1ccc(C)c(C)c1
 : 1%	>57
CCO/C=C1/C(=O)N(CC)c2ccccc21
 : -6%	>57
Cc1cccc(CNc2ncnc3[nH]ncc23)c1
 : 0%[8 µM]	>57
O=C(NCC1CCCO1)C1CCC(=O)N1Cc1ccccc1Cl (stereo not given)
 : -17%	>57

The list goes on:
| SMILES | Anthrax LT inh | SmPrx2 inh |
| --- | --- | --- |
| O=C1c2cccc3c(N4CCCCC4)ccc(c23)C(=O)N1c1ccccn1 | ? | >57 |
| CCCc1cc(C(=O)Nc2cc(Br)ccc2O)no1 | ? | >57 |
| CCOc1ccccc1N1CCN(C(=O)c2c(C)noc2C)CC1 | 9% | >57 |
| COc1ccc(C2c3c(oc4ccc(F)cc4c3=O)C(=O)N2CCN2CCOCC2)cc1OC (stereo not given) | 2% | >57 |
| CC(=O)N1c2ccc(S(=O)(=O)CCC(=O)O)cc2CC1C (stereo not given) | 1% | >57 |
| CCOc1ccc(N2CC(C(=O)Nc3cccc(C)c3C)CC2=O)cc1 (stereo not given) | -15% | >57 |
| O=C(O)c1ccc(F)c(S(=O)(=O)Nc2ccccc2)c1 | -4% | >57 |
| CNC(=O)C1C2C=CC3(O2)C1C(=O)N(C1CC1)C3C(=O)NCc1ccc(OC)cc1 (stereo not given) | -7% | >57 |
| COC(=O)CSC1=C(C#N)C(c2ccccc2OC)C(C(=O)OC)C(=O)N1 (stereo not given) | -4% | · |
| Cc1c(C(=O)N2CCCCC2)sc(NC(=O)C(C)C)c1C#N | 16% | >57 |
| COc1ccc(CCNC(=O)C2CCCN(S(C)(=O)=O)C2)cc1OC (stereo not given) | -13% | >57 |
| COCC#Cc1ccc(C2NC(C(=O)O)CCC2C)cc1 (stereo not given) | -7%[8 µM] | · |
| COc1cccc(OCc2nnc(SCC(=O)NCc3ccco3)n2CCc2ccccc2)c1 | -23% | >57 |
| CCC12CN3CC(CC)(CN(C1)C31C(=O)N(C)c3ccc(C)cc31)C2=O (stereo not given) | -8% | >57 |
| COc1ccc(C(=O)c2ccc(OC)c(OC)c2)cc1OC | -2% | >57 |
| CCOc1c(OC)cc(C2C(C#N)=C(N)Oc3n[nH]c(-c4ccncc4)c32)cc1OC (stereo not given) | 3% | >57 |
| Cc1cccc(C)c1N1C(=O)CC(N(O)c2ccccc2)C1=O (stereo not given) | · | >57 |
| O=C(CN1CCC(Cc2ccccc2)CC1)NC(=O)NCc1ccco1 | -3% | >57 |
| COCCCn1c(SCC(=O)OC2CCCCC2)nnc1-c1cccs1 | -29% | >57 |
| Cc1ccc(N(CN2CCCC2=O)C(=O)c2ccc(OC(C)C)cc2)cc1 | 4% | >57 |
| Cc1nn(Cc2ccc(F)cc2)c(C)c1NC(=O)c1cc(-c2ccc3c(c2)OCO3)on1 | 3% | >57 |
| Cc1ccc(S(=O)(=O)NC2=NCN(C3CCN(Cc4ccccc4)CC3)CN2)cc1 | 6% | >57 |
| CO[C@H]1COC(=O)C/C=C\[C@H](C)[C@@H](NS(=O)(=O)c2ccc(C)cc2)COC(=O)CCC[C@@H]1C | -3%[1.6 µM] | · |
| O=C(CN(Cc1ccc2c(c1)OCO2)C(=O)CNC(=O)c1ccco1)NC1CCCCC1 | 17% | >57 |
| CCN(CC)CCCn1c(-c2ccccc2)nc2c(NCc3ccccc3)nc(C)nc21 | -21% | · |
| O=C1CC(c2c[nH]c3ccccc23)C(=O)N1 (stereo not given) | 0% | >57 |
| C[C@@H]1CN(CCCn2c3ccccc3c3ccccc32)C[C@H](C)N1 | 32µM* | >57 |
| CC(C)(/C=N/O)/[N+]([O-])=C/c1ccccc1C(F)(F)F | 4% | >57 |
| CC1(C)N=C(/C=N/O)CN1O | 5% | >57 |
| CC(=O)Nc1cccc2c1OCCO2 | · | >57 |
| O=C(Nc1ccccc1OC(=O)N1CCCCC1)N1CCCCC1 | 2% | · |
| O=C(CN1C(=O)CCSc2ccccc21)N1CCC2(CC1)OCCO2 | 7% | >57 |
| Cc1cc(OCC(=O)c2ccc(F)cc2)ccc1N1C(=O)CCC1=O | 20% | >57 |
| Cc1ccc(/C=c2\sc3nc(-c4ccccc4Br)nn3c2=O)o1 | -9% | >57 |
| C/C(Cl)=C/Cn1c(SCCN2CCOCC2)nc2c1c(=O)[nH]c(=O)n2C | -1% | >57 |
| CC(NC(=O)c1cc(-c2ccc(O)cc2)on1)c1ccccc1 (stereo not given) | -13% | >57 |
| CC1Cc2nc(SCC(=O)OCc3ccccc3)n(C)c(=O)c2S1 (stereo not given) | ? | >57 |
| CCOC(=O)N1CCN(C(=O)c2ccc3c(=O)n(-c4ccc(OC)cc4)c(=S)[nH]c3c2)CC1 | 1% | >57 |
| Cc1cc(C(=O)N2CCN(CCc3ccccc3)CC2)no1 | 0% | >57 |
| O=C(c1csnn1)N1CCC2(CC1)CN(C(c1ccccc1)c1ccccc1)C2 | -5% | >57 |
| CCCOc1ccc(C(=O)NCc2cccnc2)cc1 | 8% | >57 |
| CCn1cc(C(=O)OCc2ccccc2)c(=O)c2ccc(C)nc21 | 10% | >57 |
| CC(=O)Nc1ccc(S(=O)(=O)N2CCSCC2)cc1 | -5% | · |
| CCS(=O)(=O)Nc1c(C(=O)OC)[nH]c2ccccc12 | ? | >57 |
| CCOc1ccc(Cn2nnc(C(=O)NCc3ccc(OC)cc3)c2N)cc1 | -16% | >57 |
| Cn1c(-c2ccccc2)cccc1=O | -6% | >57 |
| CCOC(=O)N1CCC(NC(=O)CCS(=O)(=O)c2ccc3c(c2)CCN3C(=O)CC)CC1 | 15% | >57 |
| O=C(CCCN1C(=O)CSc2ncccc21)N1CCN(c2cccc(C(F)(F)F)c2)CC1 | -14% | >57 |
| Cc1ccc(OCCC(=O)OCC(=O)N2c3ccccc3CC2C)cc1 (stereo not given) | 3% | >57 |
| CCCCCCCCC | -4% | · |
| CCOC(=O)c1ccc(N2C(=O)CC(C(=O)OC)=C2C)cc1 | 16% | >57 |
| O=c1c(-c2ccccc2)nc2cnc(Oc3ccccc3)nc2n1Cc1cccs1 | ? | >57 |
| O=C1OCCN1CCN(CN1C(=O)CCC1=O)CN1C(=O)CCC1=O | -10% | >57 |
| CCOc1ccccc1N1CCN(C(=O)Nc2ccc(F)c(Cl)c2)CC1 | ? | >57 |
| Cc1onc(-c2ccccc2Cl)c1C(=O)Nc1ccc(S(=O)(=O)NCC2CCCO2)cc1 (stereo not given) | 10% | >57 |
| N#Cc1cccc(NC(=O)N2CC[C@@]3(CCCN(C(=O)c4cccc(F)c4)C3)C2)c1 | -14% | >57 |
| Cc1onc(-c2ccccc2)c1C(=O)Nc1cccc(C#N)c1 | -19% | >57 |
| CCOc1ccc(NC(=O)CSc2nnc(C)n2CCCOC)cc1 | 0% | >57 |
| COc1cc(NC(=O)c2cc3c(=O)n(C)c4ccccc4c3n2C)cc(OC)c1OC | 6% | >57 |
| CN(CC(=O)N1CC(=O)N(CCc2ccccc2)C(=O)C1)S(=O)(=O)c1cccc2nsnc12 | -9% | >57 |

Carrying on:
| SMILES | Anthrax LT inh | SmPrx2 inh |
| --- | --- | --- |
| CCC(C)(C(=O)NC1CCCC1)N(C(=O)CNC(C)=O)c1ccc(C)cc1 (stereo not given) | 8% | >57 |
| O=C(CC1SCCNC1=O)Nc1cccc(C(F)(F)F)c1 (stereo not given) | ? | >57 |
| Cc1cc2nn(-c3ccccc3)nc2cc1NC(=O)c1cccs1 | ? | >57 |
| Cc1nc2c(C(=O)N3CCCCC3)cnn2c(C)c1Cc1ccccc1F | · | >57 |
| CC1CCCCN1C(=O)Cn1nnc(-c2cccnc2)n1 (stereo not given) | ? | >57 |
| c1ccc(Cn2nnnc2C(c2cccnc2)N2CCN(C3CCCCC3)CC2)cc1 (stereo not given) | -12% | >57 |
| Oc1cccc(C(=S)N2CCN(Cc3ccccc3)CC2)c1 | -7% | >57 |
| CSC1=NCCN1C(=O)c1ccc(S(=O)(=O)N2CCCC2)cc1 | -6% | >57 |
| CC(=O)N1CCc2cc(S(=O)(=O)CCC(=O)NCc3ccc4c(c3)OCO4)ccc21 | -2% | >57 |
| CC1=C(SCCC#N)S/C(=C2\SC(C)=C(SCCC#N)S2)S1 | -20% | >57 |
| Cc1noc(C)c1-c1nccc(N(C)Cc2ccco2)n1 | 5% | >57 |
| Cc1c(N(C(=O)c2cc(=O)[nH]c3ccccc23)C(C)C)c(=O)n(-c2ccccc2)n1C | 13% | >57 |
| COc1ccccc1CN(C)C(=O)C1COc2ccccc2O1 (stereo not given) | -18% | >57 |
| CN(C)C(=O)N1CCC(C(=O)NCc2ccccc2)CC1 | 7% | >57 |
| CC(=O)c1ccc(NC(=O)CSc2nnc(NC(=O)CN3CCOCC3)s2)cc1 | -9% | >57 |
| CCOC(=O)c1c(C)n(C)c2c(C)cc(O)c(OC(=O)CC)c12 | -6% | · |
| CCCc1[nH]nc2c1C(c1cn[nH]c1-c1ccc(F)cc1)C(C#N)=C(N)O2 (stereo not given) | -11% | >57 |
| CC(=O)c1ccc(Oc2cc(C)nc(-n3nc(C)cc3C)n2)cc1 | · | >57 |
| CCOC(=O)C1CCN(c2ncnc3c2[nH]c2cccc(OC)c23)CC1 | · | >57 |
